# Screening results deposited in PubChem by ICCB-Longwood Screening Facility, Harvard Medical School.
# MenB inh: Mtb MenB enzyme inhibition | MenB enzyme assay, absorbance read-out; some hits fall short of the stated cut | inhibition, %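 (about 12 µg/mL by stock and volumes)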 | P9WNP5 | AID 540299 | hit rate 0.43% among 100,000;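 active = mean of two replicates above 30%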;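 also: 0% = no compound and 100% = wells with inactive enzyme; the first replicate is given; strong numbers were not always called active; inactives centre near -10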
# Target sequence (P9WNP5 whole entry, looked up): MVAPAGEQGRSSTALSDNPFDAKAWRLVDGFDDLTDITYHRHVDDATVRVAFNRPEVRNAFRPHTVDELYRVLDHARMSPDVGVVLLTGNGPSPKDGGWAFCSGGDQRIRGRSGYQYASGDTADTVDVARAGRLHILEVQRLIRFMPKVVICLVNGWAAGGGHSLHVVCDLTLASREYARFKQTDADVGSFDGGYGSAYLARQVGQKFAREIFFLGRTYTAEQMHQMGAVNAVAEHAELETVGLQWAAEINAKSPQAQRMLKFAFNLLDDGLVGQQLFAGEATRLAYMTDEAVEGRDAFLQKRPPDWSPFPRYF
# Polio RdRp inh: poliovirus RNA polymerase inhibition; poliovirus polymerase elongation, fluorescence polarization; hits give low values; % elongation, % (compound at 16.7 µg/mL); hit rate 0.66% among 150,000; AID 588519; in the data active = % elongation below about 90%; also: some results filed as inactive read as strong as hits
# MbtI inh: inhibitors of Mycobacterium tuberculosis siderophore enzyme MbtI; P9WFX0; purified MbtI enzyme, fluorescence intensity read-out; inhibition, %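 (about 17 µg/mL by stock and volumes)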; hit rate 0.89% among 100,000;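 active = above 50% in both replicates, above 80% if mildly self-fluorescent; inactive = the rest, strongly fluorescent compounds included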;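 also: 0% = mean of negative and 100% = mean of positive controls; one replicate is shown; some compounds called inactive have numbers as strong as hits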
# Polio RdRp inh intensity: also measured in Polio RdRp inh; calls as there; % elongation; measured here: total intensity read-out; formula for this scale not given here;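 total fluorescence in place of polarization; lower means less elongation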
# The depositor's hits bear a star; & = joins results of further samples. An excerpt; rates above refer to the full screens.
# Every second line gives: MenB inh	Polio RdRp inh	Polio RdRp inh intensity	MbtI inh
- Cc1cc(N2CCN(C)CC2)nc2ccc(NC(=S)NCc3ccco3)cc12
    -32	99	101	23
- COc1cc2ncnc(Nc3cccc(Cl)c3)c2cc1OC
    -5	100&99	104&103	-460
- CC1Cc2ccccc2N1NC(=O)c1ccc(Cl)c(S(N)(=O)=O)c1 (centres undefined)
    2	100	100	-11
- N#Cc1ccc(C(c2ccc(C#N)cc2)n2cncn2)cc1
    -5	100	99	-11
- Cc1cn(C2CC(O)C(CO)O2)c(=O)[nH]c1=O (centres undefined)
    -26	106	102	-16
- CC(=O)O[C@]1(C(C)=O)CC[C@H]2[C@@H]3C=C(Cl)C4=CC(=O)C5CC5[C@]4(C)[C@H]3CC[C@@]21C (some centres undefined)
    -5	99	102	2
- CN1CCCN=C1COC(=O)C(O)(c1ccccc1)C1CCCCC1 (centres undefined)
    -3	99	102	-10
- CC[C@@H]1C(=O)OC[C@@H]1Cc1cncn1C
    6&6	99&101	101&103	-10&-27
- CCOC(=O)[C@H](CCc1ccccc1)N[C@@H](C)C(=O)N1Cc2ccccc2C[C@H]1C(=O)O
    2	102	103	-15
- C/C=C/C(=O)N(CC)c1ccccc1C
    -17&-11	103&104	97&100	-13&-6

# Molecules shown so far that have four or more nitrogen atoms:
# Every second line gives: MenB inh	Polio RdRp inh	Polio RdRp inh intensity	MbtI inh
- Cc1cc(N2CCN(C)CC2)nc2ccc(NC(=S)NCc3ccco3)cc12
    -32	99	101	23
- N#Cc1ccc(C(c2ccc(C#N)cc2)n2cncn2)cc1
    -5	100	99	-11

# Whole records, looked up by structure.
# `N#Cc1ccc(C(c2ccc(C#N)cc2)n2cncn2)cc1` in the list: MenB inh = -5; Polio RdRp inh = 100; Polio RdRp inh intensity = 99; MbtI inh = -11
# `COc1cc2ncnc(Nc3cccc(Cl)c3)c2cc1OC` in the list: MenB inh = -5; Polio RdRp inh = 100&99; Polio RdRp inh intensity = 104&103; MbtI inh = -460

# New compounds follow
# Every second line gives: MenB inh	Polio RdRp inh	Polio RdRp inh intensity	MbtI inh
- O=C(O)CCC(=O)c1ccc(-c2ccccc2)cc1
    -3&-3	99&98	104&102	-3&-3
- CCCCNc1ccc(C(=O)OCCN(C)C)cc1
    -6&11	98&99	100&102	-12&-25
- COc1ccc(C2CNC(=O)C2)cc1OC1CCCC1 (centres undefined)
    -4&-17	98&97&101	107&105&100	-16&-19
- CCN(CC)CCOC(=O)c1ccc(N)cc1
    3&-6	97&102	98&99	-4&-2
- CCCCCCCCCCCCCCC[C@H](O)[C@@H](N)CO
    5	101&102	104&103	-3
- CCc1ccc(CCOc2ccc(CC3SC(=O)NC3=O)cc2)nc1 (centres undefined)
    -10	101	101	-35
- CC(=O)CCCCn1c(=O)c2c(ncn2C)n(C)c1=O
    0&5	101&100	103&101	3&-6
- O=C(O)c1cccnc1Nc1cccc(C(F)(F)F)c1
    0&-9&2	101&101&98&97	104&102&102&102	17&20&-3
- CCn1cc(C(=O)O)c(=O)c2cnc(N3CCNCC3)nc21
    -19&-12	98&100	101&100	-9&-18
- NC(N)=O
    6	99	101	-26

# Quoted from the listing.
# CC(=O)CCCCn1c(=O)c2c(ncn2C)n(C)c1=O in Polio RdRp inh: 101&100
# CCOC(=O)[C@H](CCc1ccccc1)N[C@@H](C)C(=O)N1Cc2ccccc2C[C@H]1C(=O)O in Polio RdRp inh: 102
# O=C(O)CCC(=O)c1ccc(-c2ccccc2)cc1 in MbtI inh: -3&-3

# Limited to Polio RdRp inh, Polio RdRp inh intensity and MenB inh, for three of the compounds above:
SMILES	Polio RdRp inh	Polio RdRp inh intensity	MenB inh
CCN(CC)CCOC(=O)c1ccc(N)cc1	97&102	98&99	3&-6
CCCCCCCCCCCCCCC[C@H](O)[C@@H](N)CO	101&102	104&103	5
CCc1ccc(CCOc2ccc(CC3SC(=O)NC3=O)cc2)nc1 (centres undefined)	101	101	-10

# (listing goes on)
# Every second line gives: MenB inh	Polio RdRp inh	Polio RdRp inh intensity	MbtI inh
- CCOC(N)=O
    4	100	104	-3
- CCCCNc1ccc(C(=O)OCCOCCOCCOCCOCCOCCOCCOCCOCCOC)cc1
    2	99	101	-11
- O=C1OC(Nc2ccc(S(=O)(=O)Nc3ccccn3)cc2)c2ccccc21 (centres undefined)
    -6	103	107	2
- C1COC(NC(C2CC2)C2CC2)=N1
    -19	100	101	-8
- C[N+]1(C)CCC(=C(c2ccccc2)c2ccccc2)CC1
    -4	102	100	-9
- Cc1ccc(N(CC2=NCCN2)c2cccc(O)c2)cc1
    -9&0	100&103&99	103&100&100	-16&4&-14
- CNCCCN1c2ccccc2CCc2ccccc21
    3&7	102&98	104&100	-14&-3
